Assay outcomes as filed in PubChem.
Vaccinia pol inh = vaccinia E9 polymerase processive synthesis inhibitors, primary screen, biochemical, absorbance | Vaccinia virus DNA polymerase (E9) processive complex | in vitro processive DNA synthesis, absorbance read-out; hits give low values; some inactives read as strong as hits | normalized absorbance, % (concentration not given with the values) | 0.94% of 46,000 active | AID 493162, 2011;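 active = replicate mean up to 90% and picked by the depositor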;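 also: 100% = median of the test wells of a plate; 100 nL library stock went into each well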
Numbers without * were called inactive. Only part of the results is shown; count on the stated rates, not on these rows.

SMILES	Vaccinia pol inh
CNC(=O)c1ccc2c(c1)NC(=O)c1ccccc1S2	99
CN(CC(=O)N1CCc2ccccc21)c1ccccc1	92
CCOC(=O)N1CCN(C(=O)CSc2ccc(C)cc2)CC1	95
CC1(C)CCc2cc(-c3ccn(C(=O)c4ccc(Cl)cc4)n3)ccc2O1	106
C=CCSc1c2c(c(C#N)c3nc4ccccc4n13)CCC2	85
Cc1[nH]c2ccccc2c1C(Nc1ccccc1C(F)(F)F)c1ccccn1 (stereo unspecified)	99
CC12CN(Cc3ccccc3)CC(C)(CN(Cc3ccccc3)C1)C2=NO	102
CSc1nc2ccccc2n1C	90
O=c1oc2ccc(NS(=O)(=O)c3cccc4ccccc34)cc2s1	100
N#Cc1c(-c2ccc(Cl)cc2)csc1S(=O)C1CCCCC1 (stereo unspecified)	99
Nc1c(-c2nc3ccccc3[nH]2)nnn1Cc1ccccc1	103
OC1(C2(O)CCCCC2)CCCCC1	105
COc1ccc(-n2c(-c3ccc(Cl)cc3)n[nH]c2=S)cc1	90
NC(=O)c1cccn1Cc1ccc(Cl)cc1	94
Cc1ccccc1CN1CCN(C2c3ccccc3-c3ccccc32)CC1	92
COC(=O)CN1C(=O)c2cccnc2Oc2ccc(C)cc21	92
Cc1cc(=O)oc2cc(OC(=O)C(C)N3C(=O)CCC3=O)ccc12 (stereo unspecified)	99
Cc1ccccc1NC(=O)NCCc1ccccc1	94
CCCS(=O)(=O)c1ccc(C(=O)Nc2ccc(Cl)cc2)cn1	115
Nc1nc(Cl)c(-c2ccccc2)c(Cl)n1	95
COc1cccc(C(=O)Nc2ccc(Cc3ccc(NC(=O)c4cccc(OC)c4)cc3)cc2)c1	100
CCc1cc(C(=O)N2CCOCC2)c(NC2=NS(=O)(=O)c3ccccc32)s1	98
O=C(COC(=O)Cc1c(Cl)cccc1Cl)NCC1CCCO1 (stereo unspecified)	101
O=C1OC(c2ccccc2Cl)=N/C1=C/c1ccco1	91
COc1ccc(-c2cn3c(n2)CCC3)cc1	96
Cc1cc(C(=O)OCC(=O)NC2CCCCC2C)c2ccccc2n1 (stereo unspecified)	104
COc1ccc(/C=C/C(=O)OCC(=O)Nc2cccc(Cl)c2)cc1	102
CCOC(=O)c1cnc2cc(C(F)(F)F)ccc2c1N1CCCCCC1	96
CN(C)c1ccc(C(c2cc3c(cc2O)OCO3)N2CCCCC2)cc1 (stereo unspecified)	100
O=C(Nc1ccc(I)cc1)c1ccc(COc2ccccc2Br)o1	99
Cc1cc(C)c(C)c(C(=O)COC(=O)c2cc(=O)[nH]c3ccccc23)c1C	101
COc1cc(/C=c2\sc3nc4cc(C)c(C)cc4n3c2=O)c(Br)cc1OCC(=O)O	94
CCc1ccc(NC(=O)c2ccccc2C(=O)O)cc1	101
O=C(CCCn1nc(-c2ccccc2)c2ccccc21)N1CCN(c2ccc(F)cc2)CC1	101
COC(=O)c1c(NC(=O)CCNCc2ccco2)sc2c1CCC2	100
O=C(NCCc1ccccc1)Nc1ccc2c(c1)N(Cc1ccccc1)C(=O)c1ccccc1S2	106
CCOC(=O)c1c(C)nn(-c2cccc(C)c2C)c1C	101
COc1cccc(CNC(=O)CCn2nc(-c3ccccc3)ccc2=O)c1	94
CC(C)CCNC(=O)c1cc2c(=O)n3ccccc3nc2s1	91
O=C(CSc1nnc2sc3ccccc3n12)c1cccs1	100
Cn1nc(C(=O)N2CCCC2)c2c1-c1ccccc1SC2	100
O=C(O)c1c[nH]ccc1=O	98
CC(C)(C)C(=O)Nc1ccccc1C(=O)N1CCN(Cc2ccccc2)CC1	100
NS(=O)(=O)c1ccc(CCNC2=CC(=O)OC23CCCCC3)cc1	96
CC1(C)COC(Nc2cccc(Cl)c2)=N1	99
N#CC1=C(SCC(N)=O)NC(O)(C(F)(F)F)C(C(=O)c2cccs2)C1c1ccc(F)cc1 (stereo unspecified)	98
CCOC(=O)c1c(C)[nH]c(C)c1C(=O)CC#N	102
O=C(c1ccc2c(c1)N(Cc1ccccc1)CCS2)N1CCOCC1	99
COc1ccccc1NC(=O)C1CC1(c1ccc(C)cc1)c1ccc(C)cc1 (stereo unspecified)	100
O=C(O)c1cc(N=Cc2ccccc2O)ccc1O	95
C=CCn1c(C)cc(C(=O)CSc2nnc3ccccn23)c1C	100
CSc1nc(-c2ccccc2)cc(-c2cccs2)c1C#N	98
CN(C)/C=C/C(=O)c1sc(SCc2ccc(Cl)cc2)c2c1CC(C)(C)CC2=O	95
CCc1ccc2c(CCl)cc(=O)oc2c1	100
CC(C)CN=CC1=C(O)CC(C)(C)CC1=O	100
Cc1ccc(N(CC(=O)c2ccccc2)CC(=O)c2ccc(Cl)cc2)cc1	99
COc1ccc(CCn2c(C)cc(O)cc2=O)cc1OC	96
CNC(=O)c1cccc(S(=O)(=O)N2CC(C)CC(C)C2)c1 (stereo unspecified)	100
Cn1c(CNC(=O)C(C)(C)C)nc2ccccc21	93
Cc1cc(=O)n2nc(NC(C)C(=O)NCCCc3ccccc3)sc2n1 (stereo unspecified)	107
The listing continues:
SMILES	Vaccinia pol inh
CCC(=O)Nc1ccc(-c2cc3ccccc3oc2=O)cc1	102
O=S(=O)(c1cc(Cl)ccc1Cl)N1CCCCC1	104
COC(=O)c1ccc2nc(NC(=O)c3ccco3)sc2c1	95
CSc1c(-c2ccccc2)nc2ccccc2c1C(=O)O	92
Cc1ccc(S(=O)(=O)N2CC=C(c3ccccc3)CC2)cc1F	105
Cc1cccc2nc(=S)n(C(=O)c3ccc(F)cc3)n12	100
Cc1[nH]c2ccccc2c1CCNCc1ccco1	83
CC(C)OC(=O)c1cccc(C(=O)OC(C)C)n1	98
COCc1cc(C)nc(Cl)c1C#N	100
CNC(=O)N(Cc1cccnc1)Cc1ccccc1Cl	100
N#Cc1c(N)[nH]c(=S)c(C(N)=O)c1-c1cccc(Br)c1	94
CCOC(=O)n1c(=O)sc2ccccc21	100
Cc1cccc(Cn2c(SCc3ccc(C(=O)NCCN4CCCC4)cc3)nc3ccncc32)c1	101
O=C(Cn1cnc2c(nnn2Cc2ccc(Cl)cc2)c1=O)NC1CCCCC1	101
O=C(O)/C(=C/c1cccs1)c1cccs1	98
CN1C=C(c2ccccc2)N(c2ccccc2)C1	94
Cc1ccc2nc(NC(=O)C(Cc3ccccc3)NC(=O)OCc3ccccc3)sc2c1 (stereo unspecified)	100
COc1ccc(CCNC(=O)CSc2nc3ccccc3nc2N2CCCC2)cc1OC	111
O=C(COc1ccccc1Cl)N(c1ccccc1Cl)C1CN2CCC1CC2 (stereo unspecified)	104
OC(CN1CCOCC1)C12CC3CC(CC(C3)C1)C2 (stereo unspecified)	98
CCCC(=O)Nc1cccc(NC(=O)c2cccnc2)c1	91
CCC1(CC)Cc2ccccc2-c2nc(-c3ccccc3)oc(=O)c21	99
COc1ccccc1C(=O)OC1CCN(C)CC1	91
CC(=O)Oc1ccc2c(=O)c(-c3ccccc3)c(C(F)(F)F)oc2c1	100
O=C(Oc1ccc(Cl)cc1)c1c(-c2ccccc2)nnc2ccccc12	96
O=C(Nc1ccc(F)cc1F)c1cccnc1Sc1cccs1	109
O=C(O)Cn1c(C(F)(F)F)nc2ccccc21	106
Cc1ncoc1C(=O)Nc1ccccc1F	103
O=C(c1ccc(Cl)cc1)N1CCc2c([nH]c3ccccc23)C1C(F)(F)F (stereo unspecified)	100
Cc1ccc(NC(=O)CN(CCO)c2ccccc2)cc1	102

Quoted from the listing (three entries):
SMILES	Vaccinia pol inh
CNC(=O)c1ccc2c(c1)NC(=O)c1ccccc1S2	99
CN(CC(=O)N1CCc2ccccc21)c1ccccc1	92
CCOC(=O)N1CCN(C(=O)CSc2ccc(C)cc2)CC1	95

Later entries:
SMILES	Vaccinia pol inh
CCOC(=O)c1sc2nc(C)nc(N(C)Cc3ccccc3)c2c1C	100
Cc1nnc(-c2ccccc2)c(=O)n1/N=C/c1ccc(O)c(O)c1	99
C=CCn1c(SCC(=O)c2ccc(CC)cc2)nnc1-c1cccc(OC)c1	101
CC(=O)Oc1ccc2c(=O)c(-c3nc4ccccc4n3C)c(C)oc2c1	99
COc1ccc(OCCNC(C)=O)cc1	96
COc1ccc(Oc2ccc3[nH]c4c(c3c2)CCCC4=O)cc1	100
O=C(O)CNc1ccc(C(=O)O)cc1	100
COc1ccc2c3c([nH]c2c1)C(C)=NCC3	100
COc1cc(NC2=NCCS2)c(Cl)cc1Cl	104
O=C(O)c1cccc(N2C(=O)/C(=C\c3ccc4c(c3)OCO4)SC2=S)c1	100
COc1ccc(-n2nc3ccc(NC(=O)c4ccc(-c5ccccc5)cc4)cc3n2)cc1	100
O=C1S/C(=C/c2ccccc2Cl)C(=O)N1c1ccccc1	100
O=C(O)CCc1nc2ccccc2n1-c1ccccc1	100
Cc1cc(C)c(N=C(NN)N(C)C)cc1C	97
CC1CCCC(C)N1CCCNC(=O)C1c2ccccc2C(=O)N1CCc1ccc(Cl)cc1 (stereo unspecified)	97
NC(=O)C1CCCN(C(=O)NC2CCCCC2)C1 (stereo unspecified)	100
CCOC(=O)C1CCN(c2cc(C(F)(F)F)nc3ccc(C)cc23)CC1	104
CCCN(CCC)S(=O)(=O)c1ccc(F)c(C(=O)Nc2cc(C)ccc2OC)c1	98
C=CCn1c(P(=O)(O)c2ccccc2)nc2ccccc21	98
Cc1ncc(CO)c(/C=N/O)c1O	106
Cc1cc(NC(=O)c2ccc(N(C)C)cc2)no1	100
CCOC(=O)C1=C(C)OC(N)=C(C#N)C12C(=O)Nc1ccc(C)cc12 (stereo unspecified)	97
CCCCN1CCC(C#N)(Nc2ccccc2)CC1	100
Cc1ccc(-n2ncc3c(=O)n(CC(=O)NCc4ccccc4Cl)cnc32)cc1C	91
CC(=O)N1N=C(c2c(-c3ccccc3)c3cc(Cl)ccc3[nH]c2=O)CC1c1ccco1 (stereo unspecified)	100
CCCS(=O)(=O)N1CCN(C2CCN(C(=O)OCC)CC2)CC1	100
Cc1ccc(S(=O)(=O)N2CC3(C)CN(S(=O)(=O)c4ccc(C)cc4)CC(C)(C2)C3)cc1	106
Cc1onc(-c2c(Cl)cccc2Cl)c1NC(=O)Oc1ccc(CC#N)cc1	100
COc1cc(S(=O)(=O)Nc2cccnc2)ccc1Cl	98
CC(C)(C)c1ccc(-c2cc3ccccn3c2)cc1	100
CC(C)=CCC/C(C)=C/CO	90
COc1ccc2c(c1)CCC/C(=N/O)C2=O	100
Cc1scc(CN2CCC3(CC2)OCCO3)c1C	110
CC(=O)NC1(C2CCCCC2=O)CCCCC1 (stereo unspecified)	77
Cc1ccc(OCC(=O)NCc2ccccc2)cc1	100
Cn1c(-c2ccco2)[n+](C)c2ccccc21	98
Cc1cc(N2CCOCC2)c2c(N)cc(C)c(C)c2n1	99
O=C(O)CN1C(=O)S/C(=C\c2ccc(Br)cc2)C1=O	94
OC(COc1ccc(Cl)cc1)CN1CCc2ccccc2C1 (stereo unspecified)	103
NC[C@H]1O[C@H](O[C@H]2C(O[C@@H]3O[C@H](CO)[C@@H](O)[C@H]3O)[C@@H](O)[C@H](N)C[C@@H]2N)[C@H](N)[C@@H](O)[C@@H]1O (stereo partly specified)	100
O=C1OC2(CCCC2)OC(=O)C1=Cc1ccc(Br)cc1	100
O=C(CN1C(=O)c2cccnc2Oc2ccc(Cl)cc21)N1CCc2ccccc21	104
COc1cc2nc(COc3ccccc3)oc(=O)c2cc1OC	100
CCOC(=O)c1c(C)[nH]c(C(=O)CC(=O)OC)c1C	100
O=C(NCc1cccnc1)C(=O)c1c(O)[nH]c2ccccc12	95
O=C1OC2(c3ccccc3)C3CCCC2C13Sc1ccccc1	90
O=C(O)Cc1cc(=O)oc2c1ccc1ccccc12	81
CCC1(CC)Cc2ccccc2-c2nc3[nH][nH]c(=S)n3c(=O)c21	100
CC(=O)NC1C(=O)SC1(C)C (stereo unspecified)	101
O=C(Nc1nc2ccccc2n1CCN1CCOCC1)C1CCCCC1	100
Cc1ccccc1Oc1ncnc2sc3c(c12)CCCC3	105
C/C(CC1(O)C(=O)Nc2ccccc21)=N\O (stereo unspecified)	102
c1ccc2c(c1)C(=Nn1cnnc1)c1ccccc1-2	83
COc1ccc2c(C)nc(N/C(N)=N/S(=O)(=O)c3ccc(C)cc3)nc2c1	100
CC(Oc1ncnc2ccccc12)C(=O)Nc1cc(Cl)cc(Cl)c1 (stereo unspecified)	100
CC1CC(C)CN(C(=O)COc2ccccc2F)C1 (stereo unspecified)	101
CCN(C(=O)CSc1nc2ccccc2nc1C)C1CCCCC1	104
CCCn1cc(SCC(=O)Nc2sc3c(c2C(=O)OCC)CCC3)c2ccccc21	93
Cc1cccc(NC(=O)Nc2cccc(C)c2)c1	105
NC(=O)c1c(NC(=O)CCOc2ccccc2)sc2c1CCCC2	100
CCNC(=O)c1ccc2c(c1)sc1nc(-c3ccc(OC)cc3)cn12	101

Structures shown so far with four or more nitrogen atoms, in the order listed:
SMILES	Vaccinia pol inh
Nc1c(-c2nc3ccccc3[nH]2)nnn1Cc1ccccc1	103
O=C(CCCn1nc(-c2ccccc2)c2ccccc21)N1CCN(c2ccc(F)cc2)CC1	101
C=CCn1c(C)cc(C(=O)CSc2nnc3ccccn23)c1C	100
Cc1cc(=O)n2nc(NC(C)C(=O)NCCCc3ccccc3)sc2n1 (stereo unspecified)	107
N#Cc1c(N)[nH]c(=S)c(C(N)=O)c1-c1cccc(Br)c1	94
Cc1cccc(Cn2c(SCc3ccc(C(=O)NCCN4CCCC4)cc3)nc3ccncc32)c1	101
O=C(Cn1cnc2c(nnn2Cc2ccc(Cl)cc2)c1=O)NC1CCCCC1	101
COc1ccc(CCNC(=O)CSc2nc3ccccc3nc2N2CCCC2)cc1OC	111
Cc1nnc(-c2ccccc2)c(=O)n1/N=C/c1ccc(O)c(O)c1	99
COc1ccc(-n2nc3ccc(NC(=O)c4ccc(-c5ccccc5)cc4)cc3n2)cc1	100
Cc1cc(C)c(N=C(NN)N(C)C)cc1C	97
Cc1ccc(-n2ncc3c(=O)n(CC(=O)NCc4ccccc4Cl)cnc32)cc1C	91
NC[C@H]1O[C@H](O[C@H]2C(O[C@@H]3O[C@H](CO)[C@@H](O)[C@H]3O)[C@@H](O)[C@H](N)C[C@@H]2N)[C@H](N)[C@@H](O)[C@@H]1O (stereo partly specified)	100
CCC1(CC)Cc2ccccc2-c2nc3[nH][nH]c(=S)n3c(=O)c21	100
O=C(Nc1nc2ccccc2n1CCN1CCOCC1)C1CCCCC1	100
c1ccc2c(c1)C(=Nn1cnnc1)c1ccccc1-2	83
COc1ccc2c(C)nc(N/C(N)=N/S(=O)(=O)c3ccc(C)cc3)nc2c1	100
